NPYLR7 agonist: mosquito NPYLR7 agonism. HEK293T NPYLR7/Galpha15, GCaMP6s calcium fluorescence. hit rate 0.15% among 270,000. activation, % at 10 µM; in the data active = activation above about 40%;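 also: 0% = vehicle and 100% = reference agonist at the receptor; some compounds past the cut are filed as inactive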
NPYLR7 agonist max-min: also measured in NPYLR7 agonist; calls as there; activation, %; measured here: Max-Min RFU normalised activation; some inactives read as strong as hits;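 span of the calcium signal over five minutes; 0% = vehicle and 100% = native peptide agonist; compound fluorescence can raise it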
An asterisk follows results filed as active; & = joins results of further samples.

Every second line gives: NPYLR7 agonist | NPYLR7 agonist max-min
CCC(NC(=O)c1c(F)cccc1F)C1=CCCN(CCO)C1 (stereo unspecified)
  -2 | -4
CC(C)N=c1ccccn1C(=O)/C=C/c1ccc(OC(F)F)cc1
  0 | 0
O=C(C1CCN(c2nc3nonc3nc2N2CCSCC2)CC1)N1CCOCC1
  6 | 9
Cc1nn(C)c(C)c1C(C)C(=O)Nc1cc(-c2ccsc2)[nH]n1 (stereo unspecified)
  4 | -4
CC1CCCCC1NC(=O)C(C)N1CCN(c2nccs2)CC1 (stereo unspecified)
  0 | -2
O=C(NC(c1ccccc1)c1ccsc1)C1CCN(Cc2cccnc2)CC1 (stereo unspecified)
  9 | 5
CC(C)C1CN(Cc2cc(-c3cccnc3)no2)CCCN1CC1CC1 (stereo unspecified)
  -1 | -1
CCSc1nc(NC(C)C)c2cnn(CCNC(=O)c3snnc3C)c2n1
  7 | 6
CCOc1ccc(CN(Cc2cccc(C(F)(F)F)c2)Cc2nc(C(=O)N3CCCC3)co2)cc1
  -9 | 15
O=C(c1ccc([N+](=O)[O-])o1)N1CCC(Cc2ccc(C(F)(F)F)cc2)CC1
  12 | 21
CC1CCCCN1C1CN(c2nc(-c3cccnc3)nc3c2cnn3C)C1 (stereo unspecified)
  15 | 12
O=C(Cc1cccs1)N1CCN(c2nccc(-c3ccc(Oc4ccccc4)cc3)n2)CC1
  26 | 28
Cc1ccc(C)c(-n2cc(CN3CCN(c4ncccn4)CC3)c(-c3ccccc3)n2)c1
  0 | -3
CCOc1ccccc1-c1ccc(NC)nc1
  1 | 1
CO[C@H]1CN(C(=O)c2ccc(-c3cn(-c4ccccc4)cn3)cc2)CC[C@H]1N
  15 | 14
COc1ccccc1Oc1ccc(NC(=O)C2CCOCC2)cc1
  3 | 3
CN1CCC2(CC1)CCN(C(=O)c1cccc(Oc3ncccn3)c1)C2
  -4 | -5
C=CCn1c(SC(C)C(=O)Nc2ccc(N(C)C)cc2)nc2scc(-c3ccco3)c2c1=O (stereo unspecified)
  6 | 4
CN(C(=O)OC(C)(C)C)C1CCCN(C(=O)c2ccn(C)c(=O)c2)C1 (stereo unspecified)
  11 | 7
COc1cc(OC2CCN(C)CC2)ccc1Nc1ncc2c(n1)n(C1CCCC1)c(=O)n2C
  3 | -2
CN(C)S(=O)(=O)c1ccc2c(c1)nc(CCC(=O)NCC1(c3ccccc3)CCCC1)n2C
  3 | -2
Oc1c(Br)cc2oc3c(c2c1C=NCc1ccncc1)CCCC3
  6 | 4
O=C1NC(=S)SC1=Cc1ccc(Cl)cc1
  -9 | -9
CCCC(=O)Nc1oc2c(C)cccc2c(=O)c1-c1cc(OC)c(OC)c(OC)c1
  7 | 4
Cc1cccnc1C(NC(=O)C1CCN(Cc2cccnc2)CC1)c1ccc(Cl)cc1 (stereo unspecified)
  0 | -2
O=C(COc1ccccc1)N1CCN(c2ccc(-c3ccco3)nn2)CC1
  -4 | -5
COc1ccc(S(=O)(=O)N(Cc2nccn2Cc2ccccc2)CC2CC2)cc1
  8 | 12
CCn1nc(C)c(NC(=O)CN(C)Cc2snnc2C)c1C
  6 | 7
CC(Oc1ccc(F)cc1)c1n[nH]c(=S)o1 (stereo unspecified)
  -5 | -4
COc1ccc(-n2c(SCC(=O)N3CCN(C(=O)c4cc(C(F)(F)F)cc(C(F)(F)F)c4)C(C)C3)nnc2-c2ccc(C)cc2)cc1 (stereo unspecified)
  -2 | 1
Cc1ccc(OCC(=O)OCc2cc(-c3cc4ccccc4o3)on2)cc1
  -1 | 0
COc1ccccc1C(=O)NC1CC2CCC(C1)N2Cc1ccc2c(c1)OCO2 (stereo unspecified)
  2 | 9
CS(=O)(=O)NC(=O)c1cn(-c2ccc(C(F)(F)F)cn2)nn1
  6 | 6
O=C(Cc1c(F)cccc1Cl)NNC(=O)c1ccco1
  11 | 5
CCOC(=O)N1C[C@H](C(N)=O)[C@H]2c3ccccc3N(CC(=O)N(C)C)C(=O)[C@]21C
  23 | 28
O=C(Nc1ccc(-n2cccn2)cc1)C1CCN(Cc2ccccn2)CC1
  8 | 5
Cc1csc(NC(=O)c2cc(F)ccc2Br)n1
  3 | 3
COCCN(Cc1ccc(OC)c(OS(C)(=O)=O)c1)S(=O)(=O)c1ccc(OC)cc1
  -8 | -17
CC1(C)Cc2ccccc2-c2c1c(=O)n(Cc1ccccc1)c1n[nH]c(=S)n21
  1 | 0
CCOC(=O)[C@H]1[C@@H](O)C(=O)N(C)C12CCN(C(=O)Nc1ccccc1)CC2
  21 | 17
COc1cccc(-c2nc(C=Nc3cccc(C)c3)c(O)o2)c1
  -7 | -12
COc1cccc(C(=O)NCCn2ncc3c(=O)n(Cc4ccc(Cl)cc4)cnc32)c1
  -4 | -10
Cc1[nH]cnc1CN1CCC(N2CCC(C(=O)NCC3CCCO3)CC2)CC1 (stereo unspecified)
  1 | -7
CC1(C(=O)NS(=O)(=O)c2cccc(F)c2)CCN1C(=O)c1cccc(F)c1 (stereo unspecified)
  1 | 2
CC(=O)c1c[nH]c(C(=O)Nc2nc(CN3CCCC(C)C3)cs2)c1 (stereo unspecified)
  -4 | 10

Among those listed so far, these contain an aryl thioether with sulfur outside any ring:
Every second line gives: NPYLR7 agonist | NPYLR7 agonist max-min
CCSc1nc(NC(C)C)c2cnn(CCNC(=O)c3snnc3C)c2n1
  7 | 6
C=CCn1c(SC(C)C(=O)Nc2ccc(N(C)C)cc2)nc2scc(-c3ccco3)c2c1=O (stereo unspecified)
  6 | 4
COc1ccc(-n2c(SCC(=O)N3CCN(C(=O)c4cc(C(F)(F)F)cc(C(F)(F)F)c4)C(C)C3)nnc2-c2ccc(C)cc2)cc1 (stereo unspecified)
  -2 | 1

(further entries)
Every second line gives: NPYLR7 agonist | NPYLR7 agonist max-min
Oc1c(C=Nc2cc(Cl)ccc2Cl)sc2ccccc12
  34 | 60
Cc1ccc(Cc2nc(N3CCCN(C(=O)c4cccc(Br)c4)CC3)c3cnn(-c4ccccc4)c3n2)cc1
  5 | 10
O=C(c1ccc(Cl)cc1)N(Cc1ccco1)Cc1nccn1Cc1ccc(Cl)cc1Cl
  0 | 13
Cc1cc(N(C)Cc2nc3ccccc3n2C)nc(-c2cccnc2)n1
  2 | 0
O=S(=O)(NCCOc1cc(N2CCCC2)ncn1)c1ccc(Cl)s1
  -1 | -1
O=C(CN(C(=O)c1cccc2ccccc12)C1CC1)NC1CC1
  13 | 17
Cc1cccc(COCC2CN(C(=O)c3ccc(OC(F)F)cc3)CCO2)c1 (stereo unspecified)
  27 | 29
COc1ccccc1CC1CCCN(C(=O)CN2C(=O)C(CC(C)C)NC(=O)c3ccccc32)C1 (stereo unspecified)
  0 | 11
CC(C)Cn1c(=O)[nH]c(=O)c2c(C(F)(F)F)cc(-c3ccncc3)nc21
  8 | 8
COCC(=O)Nc1ccc(-n2nc(OCCc3ccc(OC)cc3)nc2-c2ccc(OC)cc2)cc1
  16 | 18
O=c1c(N=Nc2ccc(I)cc2)c(-c2ccc([N+](=O)[O-])cc2)[nH]n1-c1ccccc1
  -2 | -10
CC(c1ccccn1)N(C)Cc1ccc2nonc2c1 (stereo unspecified)
  3 | 1
CCOc1ccc(N=C2SCCN2C(=O)Cn2cnc3ccccc3c2=O)cc1
  -1 | -2
CCOC(=O)c1nn(-c2ccc(F)c(Cl)c2)cc1O
  1 | 6
CCOC(=O)c1c(N)sc(C(=O)Nc2ccc(C)cc2C)c1C
  -3 | -7

6 of the compounds above, in markdown.
| SMILES | NPYLR7 agonist | NPYLR7 agonist max-min |
| --- | --- | --- |
| O=S(=O)(NCCOc1cc(N2CCCC2)ncn1)c1ccc(Cl)s1 | -1 | -1 |
| O=C(CN(C(=O)c1cccc2ccccc12)C1CC1)NC1CC1 | 13 | 17 |
| Cc1cccc(COCC2CN(C(=O)c3ccc(OC(F)F)cc3)CCO2)c1 (stereo unspecified) | 27 | 29 |
| COc1ccccc1CC1CCCN(C(=O)CN2C(=O)C(CC(C)C)NC(=O)c3ccccc32)C1 (stereo unspecified) | 0 | 11 |
| CC(C)Cn1c(=O)[nH]c(=O)c2c(C(F)(F)F)cc(-c3ccncc3)nc21 | 8 | 8 |
| COCC(=O)Nc1ccc(-n2nc(OCCc3ccc(OC)cc3)nc2-c2ccc(OC)cc2)cc1 | 16 | 18 |

Next section:
Every second line gives: NPYLR7 agonist | NPYLR7 agonist max-min
O=S(=O)(NCC1(c2ccccc2)CC1)c1cccs1
  0 | 0
CCn1c(Cn2cccc(C(F)(F)F)c2=O)nc2c(F)cccc21
  5 | 3
CC(C)(CCl)C(=O)N(CC(=O)N1CCc2sccc2C1c1ccc(F)cc1)C1CC1 (stereo unspecified)
  -5 | 5
CC(C)C(Sc1ccccc1)C(=O)Nc1cnn(CC(N)=O)c1 (stereo unspecified)
  10 | 5
CCCN(CC(=O)N1CC(=O)N(c2ccc(Cl)cc2)C1)C(=O)C(c1ccccc1)c1ccccc1
  5 | 14
COc1cc2c(cc1OC)C(C(C)NC(=O)C1CC1)N(Cc1ccccc1F)CC2 (stereo unspecified)
  -14 | -1
CCN(CC)CCNC(=O)CN1C(=O)COc2ccc(C(=O)COc3cccc(Cl)c3)cc21
  7 | 5
CC1CCc2c(sc3ncn4nnnc4c23)C1 (stereo unspecified)
  11&0 | 8&0
Cc1ccc(Cn2cc(SCC(N)=O)c3ccccc32)cc1
  16 | 15
O=C(NC(c1ccccc1)c1ccccc1)c1ccc(CSc2nc(Cl)cc(N3CCOCC3)n2)cc1
  19 | 13
CCS(=O)(=O)NCCCn1nc(-c2ccco2)ccc1=O
  -3 | -2
Cc1cc(NC(=O)CSC(C)c2ccc(F)cc2)n(C)n1 (stereo unspecified)
  -3 | -4
Cc1ccc(N2C(=O)CSC2c2cccc(NC(=O)c3ccccc3Br)c2)cc1F (stereo unspecified)
  18 | 18
O=C(N=Nc1c(O)[nH]c2ccc(F)cc12)c1ccccc1Cl
  -10 | -15
CCCCCc1c2c(cc(O)c1C(=O)O)OC(=O)c1c(cc(OC)cc1C(=O)CCCC)O2
  -9 | -14
Cc1ccsc1CN(CCN(C)C)C(=O)c1ncccc1O
  -2 | -3
Cc1ccc(C(C)C)c(OCC(=O)Nc2cc(S(=O)(=O)N3CCOCC3)ccc2C)c1
  1 | 5
CCCOc1ccc(C2c3c(oc4ccc(C)cc4c3=O)C(=O)N2c2nccs2)cc1 (stereo unspecified)
  6 | 2
CC(NC(=O)C12CCC(=O)N1CCS2)C12CC3CC(CC(C3)C1)C2 (stereo unspecified)
  -1 | -2
Cc1ccc(CNC(=O)C2(C)CCN2C(=O)c2cc(C)n(C)n2)cc1 (stereo unspecified)
  9 | 7
CN1CCCN(C(=O)c2ccsc2)c2cc(F)ccc21
  3 | 2
CC(NC(=O)c1ccc(=O)n(C)n1)c1cc2ccccc2o1 (stereo unspecified)
  10 | 9
CCCc1cc(C(=O)N(C)CC2CCS(=O)(=O)C2)sc1C (stereo unspecified)
  10 | 7
COC(=O)Cc1cc(=O)[nH]c(N=C(N)Nc2ccccc2OC)n1
  19 | 18
CC(C(=O)Nc1ccc(F)cc1Cl)N1CCN(C(=O)C2CC2)CC1 (stereo unspecified)
  0 | -2
CCc1noc(C)c1C(=O)NCc1cnn(C(C)C)c1
  15 | 9
Cc1cc(CN(Cc2ccccc2)[C@H]2CCN(C)C[C@@H](O)C2)on1
  5 | 10
Cc1ccc(CN2CCN(Cc3c(C)n(C)n(-c4ccccc4)c3=O)CC2CCO)o1 (stereo unspecified)
  10 | 4
Cc1noc(/C=C/N(C)C)c1S(=O)(=O)N1CCc2ccccc2C1
  19 | 17
COc1cn(C)c(C(=O)NC(C)c2ccccc2)cc1=O (stereo unspecified)
  1 | -1
CCc1c(C(=O)NC2CC2)c(CC(C)C)nn1-c1ccc(C)cc1
  32 | 22
CC(=NCCO)C1=C(O)CC(C)(C)CC1=O
  12 | 5
Cc1ccsc1-c1nc(Cn2c(CO)nc3ccccc32)c(C)o1
  14 | 6
O=C(c1ccccn1)N1C[C@H]2OC(=O)N(CCCN3CCOCC3)[C@H]2C1
  -4 | -13
Cc1nc(NCc2ccccc2)c(N)c(Oc2ccccc2)n1
  13 | 10
CC(=O)Nc1cc2c(cc1[N+](=O)[O-])OCCOCCOCCOCCO2
  -4 | -7
CCOc1ccc(C(C)=O)cc1CSC(=N)N
  -7 | -17
Cc1ccc(CSc2ccc(-c3sc(C)nc3C)nn2)cc1
  2 | -3
COc1ccccc1CN1CCn2nc(C(=O)NCCCN3CCCC3=O)cc2C1=O
  21 | 10
CC1=C(C(=O)N(C)C)C(c2ccccc2Br)NC(=S)N1C1CC1 (stereo unspecified)
  -5 | -5
Fc1ccc(C2CN(Cc3cccc(OCc4ccccn4)c3)CCO2)cc1 (stereo unspecified)
  0 | -3
C=CC(C)(C)OCC(O)CN1C(C)(C)CC(O)CC1(C)C (stereo unspecified)
  0 | 3
CCOC(=O)c1cc(-c2cccc(NC(=O)[C@H](C)OC(C)=O)c2)n(-c2ccc(F)cc2)n1
  13 | 9
O=C(c1ccc(SC(F)(F)F)cc1)N1CCC2(CC1)OCCO2
  -9 | -13
c1cncc(C2CCCCN2Cc2cn[nH]c2-c2cc3ccccc3o2)c1 (stereo unspecified)
  24 | 6
COc1ccc(C2=Nc3ncnn3C(c3ccc(Cl)cc3)C2)cc1 (stereo unspecified)
  3 | 2
c1cnc(N2CCN(Cc3csc(-c4cccs4)n3)CC2)nc1
  0 | -1
CCc1nc(C)ccc1OCC(=O)N1CCC2(CN(C)C(=O)O2)C1 (stereo unspecified)
  2 | 1
O=C(Cc1cccs1)NC1C(=O)N2C(C(=O)O)=C(C[n+]3ccccc3)CSC12 (stereo unspecified)
  33 | 24
CC(=O)c1ccc(NC(=O)CSc2nc(=O)n3cccc(C)c3n2)cc1
  4 | 2
CCc1cccc(N2C(=O)CSC2c2ccc(NC(=O)c3ccco3)cc2)c1 (stereo unspecified)
  -3 | 2
Cc1cccc(Cn2nc3c(=O)n(-c4ccc(Br)cc4)ccn3c2=O)c1
  4 | 3
CC(Sc1nncn1-c1ccccc1F)C(=O)NCCc1ccccc1 (stereo unspecified)
  17 | 12
CC(C#N)CNC(=O)Nc1ccc(C(=O)NCc2ccccc2)cc1 (stereo unspecified)
  -1 | -2
COCCCN(CC(=O)N(Cc1cccn1Cc1ccc(F)cc1)C1CCCCC1)C(=O)COc1ccc(Cl)cc1
  -4 | 0
Cc1ccc(C2CN(CC(=O)Nc3nncs3)CCO2)c(C)c1 (stereo unspecified)
  -23&5 | -25&5

Screening data (PubChem)

An excerpt. The share of hits here may be higher or lower than overall.
